A488 fluor = qHTS Assay for Spectroscopic Profiling in A488 Spectral Region; max dye equivalency, M; compound autofluorescence, A488 spectral region, dye equivalency; hits give high values; 59,000 compounds, 0.1% hits; active = above 10 nM dye equivalent; inconclusive = 1 to 10 nM; inactive = 1 nM or less; about half of its hits are not listed in these tables;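 also: highest value over a series up to 38 µM; compound alone in buffer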
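Intrinsic compound fluorescence is measured in 100 mM Tris buffer at pH 8.0 following 15 min incubation at room temperature. Intensities at 480 nm excitation/540 nm emission are calibrated to an on-plate A488 concentration series, giving dye-equivalent concentrations.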
A647 fluor = qHTS Assay for Spectroscopic Profiling in A647 Spectral Region; Compound fluorescence, A647 channel (570/671 nm), Tris buffer; max dye-equivalent concentration, M; 59,000 tested, under 10 active; active means above 1 µM dye equivalent; inconclusive means 0.1 to 1 µM; inactive means 0.1 µM or less;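 also: values scaled relative to a standard on each plate; highest value over a series up to 38 µM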
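Spectral profiling of library compounds in pH 8.0 Tris: 15 min room-temperature incubation, single ex/em pair (570/671 nm), response normalized to Alexa 647 equivalents.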
TSHR ag = qHTS Assay for Agonists of the Thyroid Stimulating Hormone Receptor | Potency, µM (series often up to 57.1 µM), for the others: top-dose activation, most hits filed as activators | Thyrotropin receptor (Homo sapiens), P16473 | 73,000 compounds, 0.48% hits | HEK293-CNG-TSHR cells (CNG channel as cAMP sensor), membrane potential dye, cAMP; active = well fitted activation curve of enough size with the parental cells flat; inconclusive = any curve in the parental cells; inactive = parental cells flat and receptor cells flat or falling; also: potency is read from the fitted curve at half-maximal effect; % of control where 0% means no effect; weak receptor curves with flat parental cells got no call and are not listed
Target sequence (P16473 whole entry, looked up): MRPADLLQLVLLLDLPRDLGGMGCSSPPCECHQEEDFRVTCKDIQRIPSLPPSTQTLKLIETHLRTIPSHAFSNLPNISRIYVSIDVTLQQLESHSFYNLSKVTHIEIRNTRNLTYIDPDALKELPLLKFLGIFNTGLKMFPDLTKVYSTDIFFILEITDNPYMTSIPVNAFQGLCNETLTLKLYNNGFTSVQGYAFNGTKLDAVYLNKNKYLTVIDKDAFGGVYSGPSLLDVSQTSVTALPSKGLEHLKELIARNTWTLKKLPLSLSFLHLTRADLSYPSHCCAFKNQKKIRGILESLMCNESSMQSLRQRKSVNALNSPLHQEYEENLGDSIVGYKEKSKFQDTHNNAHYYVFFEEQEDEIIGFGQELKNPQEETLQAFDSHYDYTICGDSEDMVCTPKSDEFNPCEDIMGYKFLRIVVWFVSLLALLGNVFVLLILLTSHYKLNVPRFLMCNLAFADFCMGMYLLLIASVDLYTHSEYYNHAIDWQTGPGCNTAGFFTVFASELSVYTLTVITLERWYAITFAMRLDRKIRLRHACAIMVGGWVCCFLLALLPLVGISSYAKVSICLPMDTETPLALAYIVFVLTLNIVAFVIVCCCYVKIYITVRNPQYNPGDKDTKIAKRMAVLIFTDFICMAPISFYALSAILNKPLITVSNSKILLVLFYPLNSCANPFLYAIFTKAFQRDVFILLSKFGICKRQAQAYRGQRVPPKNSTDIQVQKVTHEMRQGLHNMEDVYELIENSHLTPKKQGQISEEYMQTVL
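HEK 293 cells stably expressing TSHR and a cAMP-gated CNG channel; parental CNG-only cells as counterscreen. Cells preloaded 60 min with membrane potential dye plus 100 uM RO 20-1724, then compound 30 min; fluorescence read at 590 nm.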
Resorufin autofl = qHTS Assay for Spectroscopic Profiling in Resorufin Spectral Region; Compound fluorescence, resorufin region 547/598 nm, buffer; hits give high values; max dye-equivalent concentration, M; 59,000 compounds, 0.04% hits; AID 588, 2007; active = above 10 nM dye equivalent; inconclusive = 1 to 10 nM; inactive = 1 nM or less; a few of its hits are not listed in these tables; also: highest value over a series up to 38 µM
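Tris 100 mM pH 8.0; compound added, 15 min RT; CCD imager read, ex 547 nm/em 598 nm; signal normalized to resorufin standard curve (six concentrations per plate) as dye-equivalent concentration.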
AID923 = qHTS Assay for Allosteric/Competitive Inhibitors of Caspase-1: Spectroscopic Profiling in AFC Spectral Region; Potency, µM (series often up to 57.5 µM), for inactives: at the top dose fluorescence increase, most hits filed as activators; 75,000 compounds, 1.1% hits; compound fluorescence, AFC spectral region (405/520 nm); almost no hit is shown here; active = well fitted activation curve with a large enough effect; inconclusive = small, poorly fitted or top-dose-only effect;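 also: potency is read from the fitted curve at half-maximal effect; 0% is about no effect; scaled to a free AFC standard on each plate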
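Compound autofluorescence profiled at 405 nm ex/520 nm em during kinetic caspase 1 run (50 nM enzyme, 5 uM Ac-WEHD-AFC, HEPES pH 7.5, 10 mM DTT). Titration up to 57 uM; baseline from regression intercept, normalized to AFC standard curve.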
Numbers without * were called inactive; i = inactive; ? = inconclusive; . = no result given; [ ] = another dose, or the depositor's remark.

Order of values: A488 fluor | A647 fluor | TSHR ag | Resorufin autofl | AID923
> COCCNC(=O)C(c1ccc(F)cc1)N(Cc1ccco1)C(=O)CCC(=O)Nc1nccs1 (stereo not given)
  i | 3.7e-09 | 0% | i | -0.8%
> Cc1nn(-c2nc3ccccc3s2)c(N)c1-c1ccccc1
  i | 1e-09 | -23% | i | -0.1%
> CCOC(=O)c1[nH]c(C)c(/C(O)=C2\C(=O)C(=O)N(CCN(C)C)C2c2ccco2)c1C (stereo not given)
  i | 9.6e-09 | -4% | i | 0.4%
> CCOC(=O)N1CCC(NC(=O)CSCc2nc(-c3sccc3C)oc2C)CC1
  . | . | 26% | . | 1.3%
> COc1cc(NC(=O)CS(=O)(=O)c2ccccc2)cc(OC)c1OC
  i | 1e-09 | 2% | i | -2.5%
> CNC(=O)C1(C)C=CC2(CCCCC2)N1C(=O)OC (stereo not given)
  . | . | 0% | . | 1.5%
> O=C(Cn1c(=O)oc2ccccc21)NCc1ccco1
  i | 1e-09 | -1% | i | 0.3%
> O=C(COc1cccc(-n2cnnn2)c1)N1CCOCC1
  i | 1e-09 | 1%[11.4 µM] | i | 1.1%
> C=CCOC(=O)C1=C(C)NC(SCC(=O)Nc2ccc(C)c(Cl)c2)=C(C#N)C1c1ccco1 (stereo not given)
  i | 2.4e-09 | . | i | .
> Cc1cc(NC(=O)CCn2c(=O)sc3ccccc32)no1
  i | 1.8e-08 | 3% | i | -0.8%
> N#Cc1c2n(c3c(=O)n(Cc4ccc(Cl)cc4)cnc13)CCCC2
  . | . | 15% | . | -0.8%
> Cc1cc(C)c2[nH]c(=O)c(CN(Cc3ccc4c(c3)OCO4)Cc3nnnn3C3CCCC3)cc2c1
  i | 2.7e-08 | ? | i | 14%
> COc1ccc(S(=O)(=O)N2CCC(C(=O)N3CCCCCC3)CC2)cc1
  i | 1e-09 | 2% | i | -1.3%
> CC(=O)NC(Cc1ccc(C)cc1)C(=O)NC1CCN(C(=O)c2cnccn2)CC1 (stereo not given)
  i | 5.2e-08 | -4% | i | 0.1%
> CCOC(=O)c1ccc(N2C(=O)CC(N3CCC(O)(c4ccc(Cl)cc4)CC3)C2=O)cc1 (stereo not given)
  i | 4.1e-09 | 24% | i | -1.8%
> CCn1c(SCC(=O)N2CCC(C(N)=O)(N3CCCCC3)CC2)nc2ccccc2c1=O
  i | 1e-09 | ? | i | -1.5%
> CCN(CC)CCCCn1c(-c2ccccc2)nc2c(NC3CCCCC3)nc(C)nc21
  . | . | ? | . | -0.4%
> CCCCC(=O)Nc1cc(NC(=O)CCCC)cc(C(=O)O)c1
  i | 1e-09 | 3% | i | -0.3%
> CCc1nnc(NC(=O)CSc2nnc3scc(-c4ccc(C)cc4)n23)s1
  i | 4.9e-09 | -1% | i | -0.1%
> COc1ccc(CNC(=O)c2csnn2)cc1
  i | 4.2e-08 | 16% | i | -0.9%
> CSc1ncccc1C(=O)OCn1nnc2ccccc2c1=O
  i | 1.7e-08 | 4% | i | -2.5%
> CN1C(=O)CSc2ccc(NC(=O)N3CCN(c4ccccn4)CC3)cc21
  i | 2e-08 | ? | i | 0.3%
> CC1=C(C(=O)OC(C)C)C(c2ccncc2)n2ncnc2N1 (stereo not given)
  i | 1.1e-08 | -11% | i | 0.5%
> O=C(NCc1ccc2c(c1)OCO2)C1CCN(C(=O)Nc2ccc(Cl)cc2)CC1
  i | 1.4e-08 | -13% | i | -1.5%
> COC(=O)Cc1[nH]nc2c1C1(C(=O)N(Cc3ccccc3)c3ccccc31)C(C#N)=C(N)O2 (stereo not given)
  i | 1e-09 | 7% | i | 2.3%
> CN(C)c1ccc(CN(C)C2CCCCC2)cc1
  . | . | 24% | . | -1.1%
> COCc1nnc(NS(=O)(=O)c2ccc(C)cc2)s1
  i | 4.4e-08 | 0% | i | -0.8%
> COc1ccc(C2N(c3ccc(F)cc3)C(=O)C3CCCN32)cc1 (stereo not given)
  . | . | 0% | . | 0.5%
> O=c1[nH]c(-c2ccccn2)nc2ccccc12
  i | 1e-09 | . | i | .
> COc1ccc(S(=O)(=O)N2CCCC(C(=O)N3CCCCCC3)C2)cc1 (stereo not given)
  i | 1e-09 | 3% | i | 1.1%
> COc1ccc(S(=O)(=O)N2CCC(C(=O)NCCC3=CCCCC3)CC2)cc1OC
  . | . | ? | . | 0.4%
> O=c1[nH]c(SCc2ccccc2Cl)nc2c1CCCC2
  i | 1e-09 | 7% | i | -0.3%
> CCN(CC)C(=O)Cn1cnc2c1c(=O)n(C)c(=O)n2C
  i | 1.2e-09 | 0% | i | 1.0%
> O=C(c1ccc(Cl)cc1)N1CCN(c2nc(N3CCCCC3)nc(N3CCCCC3)n2)CC1
  . | . | -8%[11.4 µM] | . | -1.9%
> O=C(O)CCCC[C@H]1CCSS1
  i | 2.4e-08 | 10% | i | -2.1%
> CCOC(=O)c1sc2ncn(C(C)C(=O)OC)c(=O)c2c1C (stereo not given)
  i | 1e-09 | 15% | i | -2.5%
> C=C1C2(C(=O)Nc3nccs3)CCC(C2)C1(C)C (stereo not given)
  i | 4.3e-09 | . | i | .
> Cc1cc2nc(NC3=NCN(CCN4CCOCC4)CN3)nc(C)c2cc1C
  i | 3.2e-09 | -5% | i | 2.7%
> Cc1ccc(Cn2c(-n3nc(C)cc3C)nc3c2c(=O)[nH]c(=O)n3C)cc1
  i | 1.9e-08 | ? | i | 0.9%
> CCN1C(=O)CC(C(=O)NC)SC1=Nc1cc(Cl)c(O)c(Cl)c1 (stereo not given)
  i | 5.8e-09 | 10% | i | 0.2%
> CCCn1c(C)cc(=O)c2cc(NC(=O)c3ccccn3)ccc21
  i | 8.3e-09 | 15% | i | 0.2%
> Cc1ccn2c(NC3CCCCC3)c(C)nc2c1
  i | 2.6e-08 | ? | i | -0.5%
> Cc1cc(Nc2ccc3ccccc3c2)n2ncnc2n1
  i | 1e-09 | . | i | .
> O=C(NCc1ccncc1)c1cnccn1
  i | 1e-09 | -11% | i | -0.9%
> Cn1c(CNc2nc3ccccc3n2CCN2CCCCC2)nc2ccccc21
  i | 1.3e-08 | ? | i | -1.8%
> CC(=O)NC1C(=O)Nc2c1cccc2C(F)(F)F (stereo not given)
  i | 3.9e-08 | 2% | i | 0.8%
> O=c1c2cc(N3CCOCC3)ccc2[nH]c(=S)n1CCCN1CCCCC1
  i | 9.8e-09 | -5% | i | 15%
> Cn1nnc(NC(=O)CSc2ccc(Cl)cc2)n1
  i | 6.2e-09 | . | i | 1.5%
> O=C(CSc1nnc(Cc2cccs2)n1Cc1ccco1)Nc1cc(Cl)cc(Cl)c1
  i | 2e-08 | -2% | i | 2.8%
> Cn1cnnc1SCCC(=O)Nc1ccccc1
  . | . | 3% | . | -1.7%

Continuation.
Order of values: A488 fluor | A647 fluor | TSHR ag | Resorufin autofl | AID923
> CCc1cc(-c2[nH]ncc2-c2ccc3c(c2)OCO3)c(O)cc1O
  i | 1e-09 | ? | i | -7.1%
> CS(=O)(=O)Nc1cccc(-c2cc(Nc3ccccc3)ncn2)c1
  i | 1.9e-09 | . | i | 4.9%
> Cn1nnnc1SCc1csc(Nc2ccccc2)n1
  i | 5.8e-09 | -1% | i | -0.6%
> Cc1oc2nc(SCCCC(=O)NCCO)nc(N)c2c1C
  i | 2.4e-09 | 3% | i | -1.5%
> CCc1nc(SCc2cccnc2)[nH]c(=O)c1C
  i | 1e-09 | 2% | i | -0.5%
> CCOC(=O)CCCCC(=O)c1[nH]c(=O)[nH]c1CSc1nc2ccccc2[nH]1
  i | 1e-09 | 2% | i | 2.9%
> Cc1c(C#N)c2ccccc2n1CC(=O)O
  i | 1e-09 | -9% | i | 1.8%
> CCOC(=O)c1cc(C#N)c(N)nc1C
  i | 1e-09 | 4% | i | 0.1%
> Brc1ccccc1-c1nnc2sc(Cc3ccccc3)nn12
  i | 1.1e-08 | 20% | i | -1.3%
> CCOc1ccc(-c2noc(=O)[nH]2)cc1
  i | 1e-09 | -1% | i | -0.1%
> CC(NC(=O)OCc1ccccc1)C(=O)NCC1CCCO1 (stereo not given)
  i | 3.1e-08 | -5% | i | -0.5%
> COc1ccc(C)cc1C(=O)CCC(=O)Nc1ccccc1N1CCOCC1
  i | 4.5e-09 | 5% | i | -0.2%
> CC(=O)c1nc2ccccc2n1S(=O)(=O)c1ccc(C)cc1
  i | 2.5e-09 | -3% | i | -0.2%
> COc1ccc(C)cc1Nc1cc(C)nc2nc(C)nn12
  . | . | 9% | . | -1.5%
> CO[C@@H]1COC(=O)C/C=C\[C@@H](C)[C@H](OC)COC(=O)[C@@H](C)COC(=O)C/C=C\[C@H]1C
  . | . | -7%[11.4 µM] | . | -1.1%[11.5 µM]
> N#Cc1cc2c(nc1SCC1COc3ccccc3O1)CCC2 (stereo not given)
  . | . | ? | . | 1.3%
> CC(=O)N1CCc2cc(Br)cc(S(=O)(=O)N3CCN(c4ccccn4)CC3)c21
  i | 1e-09 | 3% | i | 1.4%
> COc1cccc(N2C(=O)C(O)=C(C(C)=O)C2c2ccc(OC)c(OC)c2)c1 (stereo not given)
  i | 2.4e-08 | . | i | .
> Cc1ccccc1OCCCC(=O)Nc1ccc2c(c1)OCO2
  i | 1e-09 | . | i | 2.2%
> CCN1CCN(CCNC(=O)C2CCN(Cc3nc(-c4ccc(Cl)cc4)oc3C)CC2)CC1
  . | . | -17% | . | -2.3%

Shown comma-delimited: 2 of the compounds above
SMILES,A488 fluor,A647 fluor,TSHR ag,Resorufin autofl,AID923
COc1ccc(C)cc1Nc1cc(C)nc2nc(C)nn12,.,.,9%,.,-1.5%
CO[C@@H]1COC(=O)C/C=C\[C@@H](C)[C@H](OC)COC(=O)[C@@H](C)COC(=O)C/C=C\[C@H]1C,.,.,-7%[11.4 µM],.,-1.1%[11.5 µM]

Back to the main list, starting 2 compounds before the break.
Order of values: A488 fluor | A647 fluor | TSHR ag | Resorufin autofl | AID923
> Cc1ccccc1OCCCC(=O)Nc1ccc2c(c1)OCO2
  i | 1e-09 | . | i | 2.2%
> CCN1CCN(CCNC(=O)C2CCN(Cc3nc(-c4ccc(Cl)cc4)oc3C)CC2)CC1
  . | . | -17% | . | -2.3%
> Cc1ccc(C(=O)Nc2nnc(-c3ccncc3)s2)o1
  . | . | 1% | . | 3.0%
> CCOc1ccc(S(=O)(=O)NCCN2CCOCC2)c2ccccc12
  . | . | ? | . | -4.7%
> Cc1nc2c(-c3ccc(F)cc3)c(C)nn2c(C)c1CCC(=O)N1CCN(c2ccccn2)CC1
  . | . | 4% | . | 1.8%
> CCOC(=O)N1CCN(C(=O)C(c2ccccc2)c2ccccc2)CC1
  . | . | ? | . | 2.1%
> Cc1onc(-c2c(F)cccc2Cl)c1C(=O)Nc1ccc(S(=O)(=O)Nc2ncccn2)cc1
  i | 1e-09 | -4% | i | -0.2%
> COc1ccc(C)cc1NC(=O)CCN1CCCC1
  i | 4.6e-09 | 19% | i | 1.0%
> COc1ccccc1N1CCN(C(=O)CSc2nnc(NC(=O)C3CC3)s2)CC1
  i | 2.1e-08 | -5% | i | -2.5%
> C=CCOc1ccc(C2c3c(oc4ccccc4c3=O)C(=O)N2CCCN2CCOCC2)cc1 (stereo not given)
  i | 6.3e-09 | 7% | i | 3.4%
> CC(C)(C)c1cc(NC(=O)c2cc(F)c(F)c(F)c2F)no1
  . | . | 10% | . | 3.8%
> O=C(NCCOC(=O)c1ccc(Cl)c(S(=O)(=O)N2CCCCC2)c1)c1ccncc1
  i | 1.8e-08 | 9% | i | -1.7%
> CCOc1ccc2nc(NC3=NCN(Cc4ccco4)CN3)nc(C)c2c1
  i | 1.4e-08 | 6% | i | -0.4%

Bioassay records from PubChem.

These rows are one share of the data; rates above refer to the full screens.
